Ecoli rRNA inh = selective bacterial rRNA inhibition in E. coli; E. coli WT GFP vs humanized-ribosome RFP mutants, fluorescence, 24 h; stronger effect = lower value; DMSO median 0, no signal -100; 350,000 tested, 1.6% active; GFP signal change (wild-type ribosome), % (test concentration not listed); AID 720706;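 active = significant combined selectivity score with lowered wild-type GFP, culture density cut under 30%, mutant RFP and density less affected; inactive = any of these conditions unmet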; also: one replicate is shown; some compounds called inactive have numbers as strong as hits
Ecoli growth = blocks Escherichia coli growth; OD600 absorbance (no concentration beside the values); OD600, 23 h; stronger effect = lower value; 330,000 tested, 0.21% active;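 active = OD600 absorbance below the run mean of sample wells minus 3.6 SD, in any replicate, cut at about 0.56 in these data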;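 also: stock transfer was 300 nL into about 60 µL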
MLL AF4-AF9 inh = blocks AF4 peptide binding to human AF9. P42568. AlphaScreen, biotin-AF4 peptide binding to FLAG-AF9. inhibition, % at 10 µM. 350,000 tested, 0.47% active;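 active = every replicate reaching a set inhibition limit, whatever the replicate mean, cut at about 25% in these data; inconclusive = mean inhibition reaches that limit but some replicates miss it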;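 also: 0% = plate neutral control median and 100% = total signal loss; the record names both 10 and 1 µM as test concentration; the first replicate is given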
Target sequence (P42568 whole entry, looked up): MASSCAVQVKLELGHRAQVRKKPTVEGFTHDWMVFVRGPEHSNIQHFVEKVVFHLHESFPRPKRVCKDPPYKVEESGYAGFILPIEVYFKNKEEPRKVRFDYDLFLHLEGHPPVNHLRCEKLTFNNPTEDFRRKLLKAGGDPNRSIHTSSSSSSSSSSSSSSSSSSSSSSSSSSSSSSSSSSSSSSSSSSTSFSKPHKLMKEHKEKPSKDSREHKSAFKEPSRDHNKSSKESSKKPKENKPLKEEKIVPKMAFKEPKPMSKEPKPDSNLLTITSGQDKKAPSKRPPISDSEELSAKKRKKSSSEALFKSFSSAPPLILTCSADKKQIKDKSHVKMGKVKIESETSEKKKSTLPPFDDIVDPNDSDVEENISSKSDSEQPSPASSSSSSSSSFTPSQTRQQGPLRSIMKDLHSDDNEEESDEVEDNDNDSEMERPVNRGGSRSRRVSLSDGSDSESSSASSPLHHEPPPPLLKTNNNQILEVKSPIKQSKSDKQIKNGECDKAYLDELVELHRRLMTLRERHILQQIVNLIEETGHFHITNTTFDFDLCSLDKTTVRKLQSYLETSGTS
FGF22 binding = binders of recombinant human FGF22 by thermal shift. Q9HCT0. SYPRO orange fluorescence; percent of sucrose octasulfate shift, DMSO zero. calls only at 9.99 µM. 340,000 tested, 1.5% active;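 active = melting point raised past a set limit in the mean and every replicate; inconclusive = no clear call; three in four hits are not shown here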
ALR H2O2 inh = blocks human ALR sulfhydryl oxidase activity; AID 485317; purified ALR, DTT oxidation, H2O2 HRP-luminol luminescence; inhibition, % (concentration not given with the values); 290,000 tested, 3.8% active; P55789;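 active = mean and each replicate at 75% or more; inconclusive = only one of the two met; inactive = neither met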;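 also: stock transfer was 7.5 nL into about 7.5 µL; 0% = neutral wells and 100% = wells with inactivated enzyme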
Vif A3G = HIV-1 Vif–A3G interaction blockers – biochemical, TR-FRET, GST-Vif 1-94, biotin-A3G peptide, dose response retest, primary screen (AID 1117319); TR-FRET GST-Vif / biotin-A3G peptide binding; higher % means a stronger effect; test concentration not given here; strong numbers were not always called active; inhibition, %; hits with a dose series show IC50 in µM; 260,000 tested, 0.57% active;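 active = above the screen mean plus three standard deviations and confirmed in dose response; inconclusive = results disagree or hit not tested in dose response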;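 also: Vif residues 1-94 fused to GST binding biotinylated APOBEC3G peptide 110-148; 0% = full assay without inhibitor and 100% = GST in place of GST-Vif; retest series ran down from 100 µM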
HNF4A DNA FP = change in binding of human HNF4 alpha to DNA; HNF4a-FITC DNA binding, fluorescence polarization, 1 h; P41235; activity change, % at 10 µM; 360,000 tested, 0.3% active; in the data active = activity change above about 30%, passing the limit was not always enough;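 also: controls were the assay level and a saturating level of protein; the project sought stronger binding though the title names inhibitors; some compounds called inactive have numbers as strong as hits; positive values seem to mean higher polarization but the record does not say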
Target sequence (P41235 whole entry, looked up): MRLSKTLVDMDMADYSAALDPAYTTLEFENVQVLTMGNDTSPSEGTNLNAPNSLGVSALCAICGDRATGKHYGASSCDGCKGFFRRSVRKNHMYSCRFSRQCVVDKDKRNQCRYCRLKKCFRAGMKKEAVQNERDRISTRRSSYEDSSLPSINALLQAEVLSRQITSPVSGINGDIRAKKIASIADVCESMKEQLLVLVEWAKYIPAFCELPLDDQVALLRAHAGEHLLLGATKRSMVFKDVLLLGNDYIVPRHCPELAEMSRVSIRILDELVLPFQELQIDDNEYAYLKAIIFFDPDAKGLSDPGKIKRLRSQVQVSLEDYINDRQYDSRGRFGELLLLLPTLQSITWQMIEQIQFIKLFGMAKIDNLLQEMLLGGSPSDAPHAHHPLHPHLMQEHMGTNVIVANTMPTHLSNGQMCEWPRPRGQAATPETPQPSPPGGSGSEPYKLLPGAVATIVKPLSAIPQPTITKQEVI
Ecoli rRNA inh OD600 = recorded beside Ecoli rRNA inh, whose call it bears; OD600 change, %; measured here: OD600 growth;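 optical density of the mix in the first replicate; 0 = DMSO median and -100 = no signal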
Ecoli rRNA inh RFP = recorded beside Ecoli rRNA inh, whose call it bears; RFP signal change, %; measured here: RFP humanized mutant strains;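 first replicate; 0 = DMSO median and -100 = no signal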
The depositor's hits bear a star; i = inactive; ? = inconclusive; . = not tested or not shown; + = active, no number.

SMILES	Ecoli rRNA inh	Ecoli rRNA inh OD600	Ecoli rRNA inh RFP	Ecoli growth	MLL AF4-AF9 inh	FGF22 binding	ALR H2O2 inh	Vif A3G	HNF4A DNA FP
CCCOc1ccc(/C=C/C(=O)N2CCN(C(=O)c3ccco3)CC2)cc1OC	-1	-8	-1.1	.	0.1	i	.	-1%	-2.7
O=C1COc2ccc(C(=O)COC(=O)c3ccc([N+](=O)[O-])cc3Cl)cc2N1	5	10	-2.0	0.69	-19	i	.	-6%	-2.3
Cc1cc(C)c(C#N)c(SCC(=O)Nc2ccc(S(=O)(=O)Nc3onc(C)c3C)cc2)n1	-14	0	-3.4	0.72	-5.4	.	96*	13%	-0.1
O=[N+]([O-])c1cccc(-c2ccc(C(=S)N3CCOCC3)o2)c1	-3	-3	-4.5	0.68	6.3	i	-4	-3%	3.3
CC(=O)Nc1ccc(NC(=O)C2(C)Cc3c(-c4ccccc4)ccnc3O2)cc1 (configuration not stated)	10	23	1.7	.	-17	i	.	.	-3.0
Cc1cc(S(=O)(=O)N2CCCCC2)ccc1OCC(=O)N1CCCC1	2	1	0.6	0.71	-0.2	i	-13	4%	0.7
CO[C@H]1CN(C)C(=O)c2cc(NC(C)=O)ccc2OC[C@H](C)N(C(=O)c2ccccc2)C[C@H]1C	-1	-3	0.5	.	2.0	i	.	.	.
C[C@H]1CN([C@@H](C)CO)S(=O)(=O)c2ccc(C#CC3CC3)cc2O[C@H]1CN(C)C(=O)c1ccccn1	-4	-5	-0.5	.	1.6	i	.	.	.
O=C(c1cccnc1)N1C[C@@H]2[C@H](c3ccccc31)[C@H](CO)N2C(=O)Nc1ccccc1F	3	6	-1.4	.	-1.1	i	.	.	.
CNC(=O)CSc1nnc(-c2cccnc2)n1-c1ccc(C)cc1	18	15	2.6	0.75	0.3	i	-9	-1%	1.0
C[C@@H]1CN([C@H](C)CO)C(=O)c2cc(-c3ccccc3)cnc2O[C@H]1CN(C)C(=O)Cc1ccccn1	4	0	-0.6	.	0.6	i	.	.	.
CCOC(=O)C1CCN(C(=S)Nc2cccc(C)c2C)CC1	.	.	.	0.72	.	.	-5	-4%	0.3
COc1ccc(-c2cc(-c3ccccc3)c(-c3ccccc3)nn2)cc1	0	2	-1.7	.	11	i	.	.	.
CC(=O)NCCc1cc2ccc(C)c(C)c2[nH]c1=O	8	7	-0.4	0.71	-3.5	i	2	-4%	0.6
O=C(NCC1CCCO1)c1cccc(Oc2ccc([N+](=O)[O-])cc2)c1 (configuration not stated)	-4	6	-3.0	0.71	3.4	i	-16	1%	-0.1
O=C1C2CC=C(Cl)CC2C(=O)N1CNc1ccccn1 (configuration not stated)	.	.	.	0.69	.	.	-5	8%	-0.4
Cc1ccc(-c2nonc2NC(=O)c2ccco2)cc1	2	-1	-1.6	0.71	-2.3	i	3	-5%	-0.8
COc1cc(-c2cc3nc(C)c(C)c(=O)n3[nH]2)cc(OC)c1OC	10	2	-5.3	0.67	2.6	i	-12	-9%	6.0
COc1cccc(NC(=O)CN(C)C(=O)/C=C/c2cn(-c3ccccc3)nc2-c2ccc(OC)c(OC)c2)c1	-7	0	5.4	0.72	0.8	i	.	.	1.0
Cc1c(C(=O)N2CCCCC2)nnn1-c1nonc1N	.	.	.	0.72	.	.	-5	36%	3.5
Cc1ccc(S(=O)(=O)N2CC(=O)N3CCN(CCN)C3C2)cc1 (configuration not stated)	7	9	2.0	0.69	4.1	i	5	.	-1.5
Cc1ccc(C(=O)NC(=S)N2CCN(C)CC2)cc1Br	6	-1	-0.6	0.64	1.2	i	.	.	1.4
COc1ccc(Cl)cc1NC(=O)N(C)Cc1c(C)nn(C)c1C	.	.	.	0.7	.	.	-13	9%	-1.4
Cc1cc(C)cc(N(CCC#N)C(=O)CSc2nc3ccccc3c(=O)[nH]2)c1	-11	-31	-1.8	0.65	0.2	i	-1	-2%	4.6
CC(=O)Nc1ccc(-c2ccnc3c2CC(C(=O)NCCc2ccccc2)O3)cc1 (configuration not stated)	2	-11	-3.4	.	-1.1	i	.	.	-2.7
CC(C(=O)c1ccccc1)n1cnc2ccccc2c1=O (configuration not stated)	.	.	.	0.71	.	.	-9	3%	0.1
CC1(C)CC2(CCO1)OC(=O)CC2C(=O)Nc1ccccc1Cl (configuration not stated)	9	0	2.9	0.7	-0.2	i	-16	8%	1.0
Cc1cn(S(=O)(=O)c2ccc(Br)cc2)cn1	.	.	.	0.66	.	.	.	4%	1.7
O=C(Nc1ccccc1)N1CCSc2cc(Cl)ccc21	.	.	.	0.72	.	.	-15	-3%	2.9
CN(Cc1ccccc1)C(=O)CCS(=O)(=O)c1ccc2c(c1)oc(=O)n2C	3	0	-4.1	0.73	-3.6	i	-8	.	-4.4

Exported with the structure last: part of the list above.
Ecoli rRNA inh | Ecoli rRNA inh OD600 | Ecoli rRNA inh RFP | Ecoli growth | MLL AF4-AF9 inh | FGF22 binding | ALR H2O2 inh | Vif A3G | HNF4A DNA FP | canonical_smiles
. | . | . | 0.66 | . | . | . | 4% | 1.7 | Cc1cn(S(=O)(=O)c2ccc(Br)cc2)cn1
. | . | . | 0.72 | . | . | -15 | -3% | 2.9 | O=C(Nc1ccccc1)N1CCSc2cc(Cl)ccc21
3 | 0 | -4.1 | 0.73 | -3.6 | i | -8 | . | -4.4 | CN(Cc1ccccc1)C(=O)CCS(=O)(=O)c1ccc2c(c1)oc(=O)n2C

More compounds follow:
SMILES	Ecoli rRNA inh	Ecoli rRNA inh OD600	Ecoli rRNA inh RFP	Ecoli growth	MLL AF4-AF9 inh	FGF22 binding	ALR H2O2 inh	Vif A3G	HNF4A DNA FP
NNC(=O)C1CC(O)CN1S(=O)(=O)c1ccc(Cl)cc1 (configuration not stated)	5	12	0.2	.	0.3	i	3	9%	1.1
Cc1nnc(SCC(=O)Nc2nnc(-c3ccccc3)o2)s1	6	10	3.5	0.68	?	i	35	6%	2.6
Cc1ccc(NC(=O)Nc2ccccc2)c(Br)c1	.	.	.	0.65	.	.	-2	.	1.3
C[C@@H]1CN([C@H](C)CO)C(=O)c2cccc(NC(=O)Nc3ccccc3)c2O[C@H]1CN(C)S(=O)(=O)c1ccc(F)cc1	3	0	-1.6	.	2.4	i	.	.	.
CC(C)C(NC(=O)c1ccco1)C(=O)OCC(=O)N1CC(=O)Nc2ccccc21 (configuration not stated)	-1	6	-0.3	0.69	-9.5	i	.	7%	-0.2
COc1ccc2c3c([nH]c2c1)[C@H](CO)N(C(=O)CN(C)C)CC31CN(C(=O)c2cccnc2)C1	6	18	-1.3	.	-0.7	i	.	.	.
CC(=O)Nc1ccc(NC(=O)c2ccc(CSc3ccccc3)o2)cc1	0	9	-3.0	0.69	-0.2	i	-5	-6%	-2.0
O=C(Nc1ccc(Cl)cc1)Nc1ccc2c(c1)N1CCN=C1S2	.	.	.	0.5*	.	.	0	1%	3.9
COC(=O)c1ccc(C(=O)OC)c(NC(=O)C2CC(=O)N(C3CCCC3)C2)c1 (configuration not stated)	2	-2	-0.4	.	8.9	i	.	.	2.4
O=C1N[C@@H](Cc2c[nH]c3ccccc23)COC(=O)[C@@H](Cc2ccc(F)cc2)CC/C=C/C[C@@H]1CC(=O)N(CCO)Cc1ccccc1	0	10	3.4	0.74	0.9	i	.	1%	4.2
COc1ccc(C(=O)C2CCCN(C(=O)c3cc(C(C)C)no3)C2)cc1F (configuration not stated)	-15	-12	-2.8	0.68	-0.8	+	-4	7%	1.0
Cc1cccc(N(CC(=O)NC2CCCCC2)C(=O)CCC(=O)Nc2nccs2)c1	16	5	2.3	0.71	1.5	i	0	0%	0.8
O=C(O)CC1c2ccccc2CCN1S(=O)(=O)c1ccc(F)cc1 (configuration not stated)	-1	4	-2.5	0.66	0.9	i	-4	.	0.3
Cc1ccc(NC(=O)c2nc[nH]c2C(=O)Nc2ccc(C)cc2)cc1	.	.	.	0.75	.	.	.	11%	1.0
CC(C)CC#Cc1ccc2c(c1)O[C@@H](CN(C)Cc1cncnc1)[C@H](C)CN([C@@H](C)CO)S2(=O)=O	-23	-54	30	.	8.4	i	.	.	.
C[C@H](CO)N1C[C@H](C)[C@@H](CN(C)C)Oc2ccc(NC(=O)Nc3ccc(C(F)(F)F)cc3)cc2C1=O	-1	8	1.5	.	2.2	i	.	.	.
CCCC(=O)Nc1ccc2c(c1)OC[C@@H](C)N(C(=O)C1CCCC1)C[C@H](C)[C@@H](OC)CN(C)C2=O	0	1	0.5	.	2.3	i	.	.	.
Cc1ccc(S(=O)(=O)N[C@@H]2CC[C@@H](CCNC(=O)Cc3ccccn3)O[C@@H]2CO)cc1	5	5	-2.2	.	-1.3	i	.	.	.
Cc1ccc(CNC(=O)c2cccc(-n3cnnn3)c2)cc1	.	.	.	0.7	.	.	-4	6%	-0.1
Cc1c(NC(=O)NC(=O)c2ccc(F)cc2)c(=O)n(-c2ccccc2)n1C	.	.	.	0.76	.	.	-1	2%	-1.7
COc1ccccc1CCNC(=O)C1CCN(c2nnc(C)c3c(C)n(-c4ccc(C)cc4)nc23)CC1	1	-3	7.9	0.74	3.5	i	.	.	6.6
Cc1ccc(N2C(=O)N(CC(=O)Nc3cccc(Cl)c3)C(=O)C2C)cc1 (configuration not stated)	-13	-31	-3.6	0.66	0.8	.	-2	4%	-1.4
COc1cccc(CN(C)C(=O)CCc2nnc(-c3ccsc3)o2)c1	-5	-4	-5.8	0.71	-2.8	i	.	5%	-0.6
COc1ccccc1C(=O)Nc1cc2ccccc2oc1=O	.	.	.	0.81	.	.	-3	-3%	0.5
O=C(O)c1cccc(N2CCCCS2(=O)=O)c1	.	.	.	0.7	.	.	-3	2%	-1.0
O=C(Cc1ccc2cccnc2c1)c1ccc(O)cc1O	.	.	.	0.65	.	.	1	4%	-0.9
COc1ccc(C)cc1N(CC(=O)Nc1cccnc1)S(=O)(=O)c1ccc(C)cc1	-2	-8	1.4	0.64	-0.9	i	-8	6%	1.2
COc1cc(CO)c(OC)c([N+](=O)[O-])c1	14	16	1.4	0.7	0.3	i	-17	.	-4.8
O=C(NCCc1ccccc1)C1CCN(C2CCN(Cc3ccco3)CC2)CC1	.	.	.	0.66	1.3	i	-13	7%	3.2
O=C(c1cccc(C(F)(F)F)c1)c1c[nH]c(C(=O)NCCCN2CCOCC2)c1	.	.	.	0.73	-2.0	i	-2	-4%	-0.4
CC1=C/C(=C/N(C)c2ccccc2)C(=O)S1	.	.	.	0.7	.	.	23	?	-2.0
O=C(Nc1ccccc1)N1CCCCN2[C@H](C1)[C@H](c1ccc(C3=CCCCC3)cc1)[C@@H]2CO	-13	-26	17	.	-0.1	i	.	.	.
CCCCN(C(=O)CC1CCCC1)c1c(N)n(Cc2ccccc2)c(=O)[nH]c1=O	3	5	-1.0	.	-7.2	i	.	.	2.4
CCn1cc(CN2CCN(Cc3ccccc3)C(CCO)C2)c2ccccc21 (configuration not stated)	4	-5	0.9	0.72	6.9	i	-2	.	-0.2
CCOC(=O)[C@]12CCCC=C1N(Cc1cccc3ccccc13)C(=O)[C@H](CC(=O)NCCCCc1ccccc1)C2	.	.	.	.	-2.6	i	.	.	-2.1
COc1ccc(OCCC(=O)NCC23CC4CC(CC(C4)C2)C3)cc1	-52	-79	-8.3	0.75	0.6	.	0	.	1.6
Cn1nc(C(=O)Nc2ccc(Cl)c(S(=O)(=O)N3CCOCC3)c2)c2ccccc2c1=O	23	15	5.4	0.7	-0.8	i	-3	-56%	4.7
COc1ccc(OCCCC(=O)ON=C(N)c2ccccc2C)cc1	-10	-5	0.2	0.7	1.4	i	-7	-4%	-2.0

High-throughput results as filed in PubChem BioAssay.

This is a subset, so the mix of outcomes need not match the whole.
